Source: PubChem (several laboratories)
FGF22 binding: FGF22 (human) thermal shift binding; Q9HCT0; recombinant FGF22 thermal shift, SYPRO orange fluorescence; percent of sucrose octasulfate shift, DMSO zero; calls only at 9.99 µM; actives 1.5% (n = 340,000); AID 651658;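 active = melting point raised past a set limit in the mean and every replicate; inconclusive = no clear call; three in four hits are not shown here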
HNF4A DNA FP: change in binding of human HNF4 alpha to DNA | AID 1224865 | actives 0.3% (n = 360,000) | HNF4a-FITC DNA binding, fluorescence polarization, 1 h | activity change, % at 10 µM; in the data active = activity change above about 30%, passing the limit was not always enough;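 also: controls were the assay level and a saturating level of protein; the project sought stronger binding though the title names inhibitors; some compounds called inactive have numbers as strong as hits; positive values seem to mean higher polarization but the record does not say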
Ecoli rRNA inh: selective bacterial rRNA inhibition in E. coli; actives 1.6% (n = 350,000); GFP signal change (wild-type ribosome), % (test concentration not listed); E. coli WT GFP vs humanized-ribosome RFP mutants, fluorescence, 24 h; hits give low values; DMSO median 0, no signal -100; AID 720706;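 active = significant combined selectivity score with lowered wild-type GFP, culture density cut under 30%, mutant RFP and density less affected; inactive = any of these conditions unmet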; also: one replicate is shown; some compounds called inactive have numbers as strong as hits
Vif A3G: inhibitors of Vif binding to APOBEC3G peptide, primary screen, biochemical, TR-FRET, GST-Vif 1-94, biotin-A3G peptide, dose response retest (AID 1117319) | TR-FRET GST-Vif / biotin-A3G peptide binding; higher % means a stronger effect; test concentration not given here; strong numbers were not always called active | inhibition, %; hits with a dose series show IC50 in µM | actives 0.57% (n = 260,000);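 active = above the screen mean plus three standard deviations and confirmed in dose response; inconclusive = results disagree or hit not tested in dose response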;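 also: Vif residues 1-94 fused to GST binding biotinylated APOBEC3G peptide 110-148; 0% = full assay without inhibitor and 100% = GST in place of GST-Vif; retest series ran down from 100 µM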
AF4-AF9 inh: blocks AF4 peptide binding to human AF9; AlphaScreen, biotin-AF4 peptide binding to FLAG-AF9; inhibition, % at 10 µM; actives 0.47% (n = 350,000);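 active = every replicate reaching a set inhibition limit, whatever the replicate mean, cut at about 25% in these data; inconclusive = mean inhibition reaches that limit but some replicates miss it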;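 also: 0% = plate neutral control median and 100% = total signal loss; the record names both 10 and 1 µM as test concentration; the first replicate is given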
Target sequence (P42568 whole entry, looked up): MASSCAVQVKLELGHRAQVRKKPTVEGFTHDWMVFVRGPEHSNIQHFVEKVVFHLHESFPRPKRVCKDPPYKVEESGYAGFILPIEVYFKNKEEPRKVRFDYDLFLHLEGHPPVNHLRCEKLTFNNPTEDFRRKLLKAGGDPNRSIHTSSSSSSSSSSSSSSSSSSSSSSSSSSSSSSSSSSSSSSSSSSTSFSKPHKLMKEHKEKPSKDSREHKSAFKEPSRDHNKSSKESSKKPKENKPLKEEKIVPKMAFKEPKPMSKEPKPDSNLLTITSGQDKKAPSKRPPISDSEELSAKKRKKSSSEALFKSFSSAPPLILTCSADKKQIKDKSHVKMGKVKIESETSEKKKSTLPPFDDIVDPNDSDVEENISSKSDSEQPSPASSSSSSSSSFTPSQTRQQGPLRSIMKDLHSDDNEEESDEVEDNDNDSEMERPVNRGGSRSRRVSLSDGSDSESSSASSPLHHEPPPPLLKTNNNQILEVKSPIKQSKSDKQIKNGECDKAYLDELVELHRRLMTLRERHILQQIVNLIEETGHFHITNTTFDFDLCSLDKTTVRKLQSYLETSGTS
Ecoli growth: inhibitors of Escherichia coli growth; OD600 absorbance (concentration not given with the values); OD600, 23 h; hits give low values; actives 0.21% (n = 330,000);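 active = OD600 absorbance below the run mean of sample wells minus 3.6 SD, in any replicate, cut at about 0.56 in these data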;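 also: stock transfer was 300 nL into about 60 µL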
ALR H2O2 inh: blocks human ALR sulfhydryl oxidase activity. purified ALR, DTT oxidation, H2O2 HRP-luminol luminescence. actives 3.8% (n = 290,000). AID 485317. inhibition, % (test concentration not listed);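 active = mean and each replicate at 75% or more; inconclusive = only one of the two met; inactive = neither met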;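 also: stock transfer was 7.5 nL into about 7.5 µL; 0% = neutral wells and 100% = wells with inactivated enzyme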
Target sequence (P55789 whole entry, looked up): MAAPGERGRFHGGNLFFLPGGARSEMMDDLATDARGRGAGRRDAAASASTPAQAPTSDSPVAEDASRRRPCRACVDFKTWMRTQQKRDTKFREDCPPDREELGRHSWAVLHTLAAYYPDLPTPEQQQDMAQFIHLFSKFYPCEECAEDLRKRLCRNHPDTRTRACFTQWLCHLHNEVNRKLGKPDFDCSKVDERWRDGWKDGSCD
Ecoli rRNA inh OD600: recorded beside Ecoli rRNA inh, whose call it bears; OD600 change, %; measured here: OD600 growth;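 optical density of the mix in the first replicate; 0 = DMSO median and -100 = no signal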
Ecoli rRNA inh RFP: recorded beside Ecoli rRNA inh, whose call it bears; RFP signal change, %; measured here: RFP humanized mutant strains;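 first replicate; 0 = DMSO median and -100 = no signal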
The depositor's hits bear a star; i = inactive; ? = inconclusive; · = not tested or not shown. These rows are one share of the data, so the mix of outcomes need not match the whole.

no.	SMILES	FGF22 binding	HNF4A DNA FP	Ecoli rRNA inh	Ecoli rRNA inh OD600	Ecoli rRNA inh RFP	Vif A3G	AF4-AF9 inh	Ecoli growth	ALR H2O2 inh
1	CCN(CC)c1ccc(NC(=S)Nc2ccc(F)cc2)cc1	·	4.1	-48	-70	-11	?	27*	0.68	·
2	CC(C)(C)OC(=O)N[C@@H](/C=C/c1ccccc1)C(=O)OC(C)(C)C	i	5.5	5	2	-5.0	·	·	·	2
3	COc1ccccc1CNC(=O)COC(=O)C1CCN(S(=O)(=O)c2c(Cl)cccc2Cl)CC1	i	2.2	-4	-11	1.9	·	-0.4	0.66	·
4	O=C(O)C[C@H]1C[C@@H]2c3cc(NC(=O)CC4CC4)ccc3O[C@@H]2[C@H](CO)O1	i	·	2	3	-1.2	·	-2.6	·	·
5	Cc1ccc(NC(=O)c2c(O)c3ccccc3n(C)c2=O)nc1	·	1.6	·	·	·	0%	·	0.73	·
6	Cc1ccc2cccc(OCC(=O)Nc3cccc(S(=O)(=O)N4CCCC4)c3)c2n1	i	1.4	·	·	·	-4%	-1.3	0.69	-15
7	CNc1nnc(CSc2nc3ccccc3s2)s1	·	-2.3	-5	-8	1.0	15%	·	0.74	99*
8	O=C(CSc1ccc(Cl)cc1)OCc1nnc(-c2ccccc2)o1	·	1.8	·	·	·	11%	·	0.69	-4
9	C[C@H](CO)N1C[C@H](C)[C@@H](CN(C)S(=O)(=O)c2ccccc2)Oc2ncc(Br)cc2C1=O	i	·	-7	-7	-1.7	·	-10	·	·
10	C[C@H](CO)N1C[C@H](C)[C@@H](CN(C)S(=O)(=O)c2ccccc2)Oc2ccc(NC(=O)Nc3cccc4ccccc34)cc2CC1=O	i	·	0	5	-3.4	·	-14	·	·
11	C/C=C/c1ccc2c(c1)O[C@@H](CN(C)Cc1ccccn1)[C@H](C)CN([C@@H](C)CO)S2(=O)=O	i	·	-7	-28	1.1	·	3.7	·	·
12	COc1ccccc1CNC(=O)Cn1cccc1C(=O)c1ccccc1	i	-1.6	-3	-7	-4.0	-7%	-4.1	0.62	1
13	S=C(Nc1ccccc1Cl)N1CCCCCC1	i	-4.4	7	3	0.5	-1%	-2.2	0.67	-7
14	COc1ccc(C(=O)N2CCC(c3ccccc3)CC2)c(OC)c1OC	i	0.7	-1	-2	1.4	3%	-0.9	0.7	-6
15	CCCNC(=O)C[C@H]1CC[C@@H]2[C@@H](COc3ccc(NC(=O)Nc4c(C)noc4C)cc3C(=O)N2C)O1	i	·	-1	-5	-1.1	·	-0.5	·	·
16	COc1cccc(S(=O)(=O)N[C@@H]2C=C[C@@H](CC(=O)NC3Cc4ccccc4C3)O[C@H]2CO)c1	i	·	-4	-11	0.6	·	0.8	·	·
17	Cc1ccc(C)c(N(C(=O)CNC(=O)c2ccco2)C(C(=O)NC2CCCC2)c2ccncc2)c1 (stereo not drawn)	i	1.6	6	10	-0.1	·	2.5	0.67	·
18	COC(=O)c1ccc(Oc2ccc3nnc(C)n3n2)cc1	·	0.1	·	·	·	7%	·	0.72	1
19	CCOc1ccc(NC(=O)c2ccc(S(=O)(=O)N3CCOCC3)cc2)cc1	i	-0.7	-3	3	-3.0	·	-6.9	0.65	1
20	CC1(C(=O)NS(=O)(=O)c2cccc(OC(F)F)c2)CCN1C(=O)Cc1ccccc1 (stereo not drawn)	i	-0.7	8	12	-0.8	·	2.2	·	·
21	Cc1cccc(NC(=O)CCNC(=O)c2ccco2)c1C	i	-2.5	16	8	4.4	4%	-1.3	0.69	3
22	O=C(c1ccc(NC(=S)Nc2ccc(Cl)c(Cl)c2)cc1)N1CCCC1	i	-1.4	-23	-23	5.5	14%	-10	0.59	-22
23	C[C@@H](NC(=O)C[C@@H]1C[C@H]2c3cc(NC(=O)NC4CCCC4)ccc3O[C@H]2[C@H](CO)O1)c1ccccc1	i	·	1	4	0.8	·	-1.6	·	·
24	Cc1cccc(NC(=S)N2CCC(C(N)=O)(N3CCCCC3)CC2)c1C	i	-0.1	20	12	1.0	3%	-5.6	0.67	·
25	COc1ccccc1C(=O)NCC(=O)NCC1(N2CCCCC2)CCCCC1	i	-3.9	14	17	-1.5	·	-1.0	·	7
26	CCOc1ccc(N=c2oc3cc(O)ccc3cc2C(=O)NCC2CCCO2)cc1 (stereo not drawn)	i	5.9	-2	-11	2.6	15%	-14	0.75	-6
27	CC(C)NC(=O)Nc1ccc2c(c1)CC(=O)N([C@@H](C)CO)C[C@@H](C)[C@@H](CN(C)CC1CC1)O2	i	·	6	14	-1.3	·	-1.7	·	·
28	Cn1nnnc1SCC(=O)Nc1nc2c(s1)CCCC2	·	-0.4	·	·	·	9%	·	0.67	-15
29	CC1SC(=S)N(c2ccc(N(C)C)cc2)C1=O (stereo not drawn)	i	-2.4	0	-3	2.4	11%	13	0.65	99*
30	C[C@H](CO)N1C[C@H](C)[C@@H](CN(C)C)Oc2ccc(NC(=O)Nc3ccc(F)cc3)cc2C1=O	i	·	0	-2	0.4	·	-2.3	·	·
31	CC(C)COC(=O)N1CCCCC1c1cc(C(=O)NC(C)C)no1 (stereo not drawn)	i	-1.2	9	9	3.2	·	1.3	·	·
32	COC(=O)c1cccc(Nc2nc3ccccc3nc2C)c1	·	2.0	·	·	·	-4%	·	0.71	-4

A different layout for ten compounds above:
Below each compound: FGF22 binding | HNF4A DNA FP | Ecoli rRNA inh | Ecoli rRNA inh OD600 | Ecoli rRNA inh RFP | Vif A3G | AF4-AF9 inh | Ecoli growth | ALR H2O2 inh
[23] C[C@@H](NC(=O)C[C@@H]1C[C@H]2c3cc(NC(=O)NC4CCCC4)ccc3O[C@H]2[C@H](CO)O1)c1ccccc1
    i | · | 1 | 4 | 0.8 | · | -1.6 | · | ·
[24] Cc1cccc(NC(=S)N2CCC(C(N)=O)(N3CCCCC3)CC2)c1C
    i | -0.1 | 20 | 12 | 1.0 | 3% | -5.6 | 0.67 | ·
[25] COc1ccccc1C(=O)NCC(=O)NCC1(N2CCCCC2)CCCCC1
    i | -3.9 | 14 | 17 | -1.5 | · | -1.0 | · | 7
[26] CCOc1ccc(N=c2oc3cc(O)ccc3cc2C(=O)NCC2CCCO2)cc1 (stereo not drawn)
    i | 5.9 | -2 | -11 | 2.6 | 15% | -14 | 0.75 | -6
[27] CC(C)NC(=O)Nc1ccc2c(c1)CC(=O)N([C@@H](C)CO)C[C@@H](C)[C@@H](CN(C)CC1CC1)O2
    i | · | 6 | 14 | -1.3 | · | -1.7 | · | ·
[28] Cn1nnnc1SCC(=O)Nc1nc2c(s1)CCCC2
    · | -0.4 | · | · | · | 9% | · | 0.67 | -15
[29] CC1SC(=S)N(c2ccc(N(C)C)cc2)C1=O (stereo not drawn)
    i | -2.4 | 0 | -3 | 2.4 | 11% | 13 | 0.65 | 99*
[30] C[C@H](CO)N1C[C@H](C)[C@@H](CN(C)C)Oc2ccc(NC(=O)Nc3ccc(F)cc3)cc2C1=O
    i | · | 0 | -2 | 0.4 | · | -2.3 | · | ·
[31] CC(C)COC(=O)N1CCCCC1c1cc(C(=O)NC(C)C)no1 (stereo not drawn)
    i | -1.2 | 9 | 9 | 3.2 | · | 1.3 | · | ·
[32] COC(=O)c1cccc(Nc2nc3ccccc3nc2C)c1
    · | 2.0 | · | · | · | -4% | · | 0.71 | -4
